Sa ugtP lethal: kills S. aureus RN4220 lacking UgtP; S. aureus RN4220 ugtP deletion, OD600 growth, 16 h; some inactives read as strong as hits; growth inhibition, % (concentration not given with the values); 0.54% of 330,000 active;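 active = z-score under -3 and OD600 up to 0.15 on both plates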;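 note: plate controls were untreated wells for no effect and antibiotic for full effect; wells of about 80 µL received 100 nL stock; the first replicate is given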
Mtb hypoxia rep: reduces hypoxia-regulated biosensor signal in M. tuberculosis; fluorescence inhibition, % (test concentration not listed); M. tuberculosis hypoxia-regulated fluorescent reporter, fluorescence; AID 1159583; 0.1% of 300,000 active;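 active = 35 to 45% if threefold the growth effect, above 45% if 1.5-fold the growth effect; inactive = the rest, general growth blockers included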;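 note: wells of about 50 µL received 100 nL stock; 0% = vehicle wells and 100% = reference inhibitor wells; whole bacteria with a GFP reporter of the hypoxia response; strong numbers were not always called active; many hits fall short of the cut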
RN4220 kill: S. aureus RN4220 growth inhibition; 0.33% of 330,000 active; inhibition, % (test concentration not listed); OD600, 16 h;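 active = z-score of -3 or lower and OD600 up to 0.18 on both plates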;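 note: plate controls were untreated cells for no effect and reference antibiotic for full effect; stock transfer was 100 nL into about 80 µL; one replicate is shown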
Bead autofluor: counter-screen for toxin protease inhibitors: compound fluorescence. compound autofluorescence counterscreen, microsphere flow cytometry; active compounds read high. fluorescence intensity (test concentration not listed). 3.1% of 360,000 active. AID 624483;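 active = at least 3 SD above the mean of all compounds, about 16000 in these data; inconclusive = too few beads counted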;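 note: 100 nL of 1 mM stock went into each well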
BJeLR lethal: kills HRASV12-expressing BJeLR cells | BJeLR (HRASV12) viability, CellTiter-Glo ATP luminescence, 48 h; reference of the scale not given here | AID 1554 | 0.17% of 300,000 active | inhibition, % (concentration not given with the values);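 active = replicate mean above 50%; inconclusive = above 50% but judged a plate artefact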;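 note: 50 nL library stock added to about 25 µL; numbers are from one replicate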
PrP 5UTR inh: suppresses PrP 5' UTR mRNA reporter expression | 0.35% of 340,000 active | cell-based PrP 5' UTR mRNA reporter, plate reader | inhibition, % (no concentration beside the values);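 active = every replicate at 50% or more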;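 note: 0 = median of the neutral control wells; tested in H4 reporter cells; numbers are from one replicate; inactives centre near -14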
Mtb hypoxia rep growth: recorded beside Mtb hypoxia rep, whose call it bears; growth inhibition, %; measured here: M. tuberculosis growth (absorbance);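 0% = vehicle and 100% = reference antibiotic; read after six days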
Starred values were filed as active, the others as inactive; ? = inconclusive; / = no result given.

SMILES	Sa ugtP lethal	Mtb hypoxia rep	Mtb hypoxia rep growth	RN4220 kill	Bead autofluor	BJeLR lethal	PrP 5UTR inh
CC(C)c1ccc(NC(=O)COc2nnc(-c3cccs3)c(-c3cccs3)n2)cc1	-3	-1	-4	-7.8	4000	0	-6
CC(NC(=O)c1ccc(N2CCCC2=O)cc1)c1ccccc1 (configuration not stated)	0	0	3	4.1	11002	21	/
CNS(=O)(=O)c1cccc(C(=O)NC2CCCc3ccccc32)c1 (configuration not stated)	0	11	18	-0.2	3682	-3	4
O=CN1CCC(=O)N(Cc2ccccc2)c2ccccc21	0	3	3	0.3	24835*	-1	-21
CCc1ccc(-c2nnn(CC(=O)N(C3CCCC3)C3CCS(=O)(=O)C3)n2)cc1 (configuration not stated)	4	0	6	5.5	8688	/	3
O=C(O)C(NS(=O)(=O)c1ccccc1)C(O)c1ccccc1 (configuration not stated)	/	/	/	/	3262	-2	-20
CCN(CC)S(=O)(=O)c1ccc(OC)c(NC(=S)Nc2cccc(C)c2C)c1	5	7	3	2.9	2137	-5	2
CCOc1ccccc1NC(=O)CCC(=O)Nc1ccccc1OCC	7	/	/	0.9	3263	1	-16
COC(=O)C1=C(C)n2cnnc2NC1c1ccc(Cl)cc1 (configuration not stated)	2	/	/	1.1	6159	-9	-15
COc1cc(OC)c(C(=O)Nc2ncn[nH]2)cc1OC	5	/	/	2.4	3223	8	-21
COc1cccc(-n2nnc3c(=O)n(CC(=O)N4CCCCC4)cnc32)c1	9	4	5	0.3	11221	9	-27
COc1ccc(N2CC(C(=O)Nc3ccc(N4CCOCC4)cc3)CC2=O)cc1 (configuration not stated)	2	0	2	1.8	4151	2	-22
CC1(C)CC(=O)C(C2c3ccccc3Oc3ccccc32)C(=O)C1	-6	15	10	5.5	3713	0	-30
CC(=O)c1ccc(N2CCN(S(=O)(=O)c3ccc4c(c3)NC(=O)CO4)CC2)cc1	1	1	-6	1.6	5389	10	-6
CCC(=O)Nc1nc(C)nc(C)c1C(C)=O	12	/	/	-0.5	2809	5	-4
C#CCNC(=O)C1=C[C@@H](C2CCCCC2)[C@H](CCCO)[C@@H](OCC)O1	/	/	/	/	3835	0	-10
Cc1ccccc1C(=O)N/C(=C/c1ccc(-c2cccnc2Cl)o1)C(=O)NCCCN1CCN(C)CC1	-2	-6	2	-1.2	3984	2	-8
Cc1sc(NC(=O)C2C3CCC(C3)C2C(=O)O)c(C(N)=O)c1-c1ccc(C(C)(C)C)cc1 (configuration not stated)	-9	-17	-9	-3.2	9648	2	-38
CCN1CCCC(NC(=O)c2scc3c2CCCC3)C1 (configuration not stated)	/	/	/	/	5360	4	-33
O=C(c1ccc2c(=O)n(CC3CCCO3)c(=S)[nH]c2c1)N1CCN(c2ccccc2)CC1 (configuration not stated)	-1	/	/	-7.4	/	2	-2
COc1ccc(CNC(=O)c2c(O)c3cc(OC)c(OC)cc3[nH]c2=O)cc1OC	10	5	9	3.7	4077	-2	-12
O=C(O)CCC(=O)N1N=C(c2ccccc2)CC1c1ccc2c(c1)OCO2 (configuration not stated)	15	-3	-3	5.4	3131	-1	-2
O=C(NN=Cc1ccccc1)c1ccc2c(c1)OCO2	7	21	11	-0.4	/	/	/
CCC1CCCCN1CCN1C(=O)C2C(C(=O)Nc3ccc(OC)cc3)C3C=CC2(O3)C1C(=O)NC1CCCCC1 (configuration not stated)	6	-4	-5	4.0	4521	6	-9
Cc1ccc(-c2nnc(-c3ccncc3)n2-c2ccc(C)cc2)cc1	0	-3	9	1.7	21828*	5	-11
COc1ccc(C(=O)NC(C)c2nnc(SCC(=O)Nc3nc4ccccc4s3)n2C)cc1 (configuration not stated)	-3	6	14	-7.9	3091	-1	-17
CCCc1nc2oc3ccccc3c(=O)c2c(=O)n1-c1ccccc1	-12	11	6	3.2	6582	5	/
CCOC(=O)CNC(=O)CSc1nnc(Cn2cnc3ccccc32)n1C	-3	13	7	2.0	4474	2	-5
COc1ccc(C(=O)Nc2ccc3ccccc3c2)c(OC)c1	21	10	3	-2.6	3392	0	-50
O=C(c1sc2ccccc2c1Cl)N1CCN(c2ccc(F)cc2)CC1	15	6	-3	4.2	4455	-2	-8

Some of the entries above, reformatted:
Each structure is followed by: Sa ugtP lethal	Mtb hypoxia rep	Mtb hypoxia rep growth	RN4220 kill	Bead autofluor	BJeLR lethal	PrP 5UTR inh
- COc1cccc(-n2nnc3c(=O)n(CC(=O)N4CCCCC4)cnc32)c1
 : 9	4	5	0.3	11221	9	-27
- COc1ccc(N2CC(C(=O)Nc3ccc(N4CCOCC4)cc3)CC2=O)cc1 (configuration not stated)
 : 2	0	2	1.8	4151	2	-22
- CC1(C)CC(=O)C(C2c3ccccc3Oc3ccccc32)C(=O)C1
 : -6	15	10	5.5	3713	0	-30
- CC(=O)c1ccc(N2CCN(S(=O)(=O)c3ccc4c(c3)NC(=O)CO4)CC2)cc1
 : 1	1	-6	1.6	5389	10	-6
- CCC(=O)Nc1nc(C)nc(C)c1C(C)=O
 : 12	/	/	-0.5	2809	5	-4
- C#CCNC(=O)C1=C[C@@H](C2CCCCC2)[C@H](CCCO)[C@@H](OCC)O1
 : /	/	/	/	3835	0	-10
- Cc1ccccc1C(=O)N/C(=C/c1ccc(-c2cccnc2Cl)o1)C(=O)NCCCN1CCN(C)CC1
 : -2	-6	2	-1.2	3984	2	-8
- Cc1sc(NC(=O)C2C3CCC(C3)C2C(=O)O)c(C(N)=O)c1-c1ccc(C(C)(C)C)cc1 (configuration not stated)
 : -9	-17	-9	-3.2	9648	2	-38
- CCN1CCCC(NC(=O)c2scc3c2CCCC3)C1 (configuration not stated)
 : /	/	/	/	5360	4	-33
- O=C(c1ccc2c(=O)n(CC3CCCO3)c(=S)[nH]c2c1)N1CCN(c2ccccc2)CC1 (configuration not stated)
 : -1	/	/	-7.4	/	2	-2
- COc1ccc(CNC(=O)c2c(O)c3cc(OC)c(OC)cc3[nH]c2=O)cc1OC
 : 10	5	9	3.7	4077	-2	-12
- O=C(O)CCC(=O)N1N=C(c2ccccc2)CC1c1ccc2c(c1)OCO2 (configuration not stated)
 : 15	-3	-3	5.4	3131	-1	-2
- O=C(NN=Cc1ccccc1)c1ccc2c(c1)OCO2
 : 7	21	11	-0.4	/	/	/
- CCC1CCCCN1CCN1C(=O)C2C(C(=O)Nc3ccc(OC)cc3)C3C=CC2(O3)C1C(=O)NC1CCCCC1 (configuration not stated)
 : 6	-4	-5	4.0	4521	6	-9
- Cc1ccc(-c2nnc(-c3ccncc3)n2-c2ccc(C)cc2)cc1
 : 0	-3	9	1.7	21828*	5	-11
- COc1ccc(C(=O)NC(C)c2nnc(SCC(=O)Nc3nc4ccccc4s3)n2C)cc1 (configuration not stated)
 : -3	6	14	-7.9	3091	-1	-17
- CCCc1nc2oc3ccccc3c(=O)c2c(=O)n1-c1ccccc1
 : -12	11	6	3.2	6582	5	/
- CCOC(=O)CNC(=O)CSc1nnc(Cn2cnc3ccccc32)n1C
 : -3	13	7	2.0	4474	2	-5

Next section:
SMILES	Sa ugtP lethal	Mtb hypoxia rep	Mtb hypoxia rep growth	RN4220 kill	Bead autofluor	BJeLR lethal	PrP 5UTR inh
CC1CN(C(C)CO)C(=O)c2cccc(NC(=O)Nc3ccc(C(F)(F)F)cc3)c2OC1CN(C)Cc1ccc(-c2ccccc2)cc1 (configuration not stated)	-1	6	0	1.3	/	/	/
CCOP(=O)(OCC)C(NC(=O)Nc1ccccc1)c1ccccc1 (configuration not stated)	9	8	9	4.0	8511	-5	-22
COc1ccc(NC(=O)CSc2nc(N)c(C#N)cc2C#N)cc1	-10	-8	2	0.6	7786	-12	-44
CCCSc1nc(-c2ccccc2)cc(C(F)(F)F)c1C#N	54	3	4	3.1	19871*	-1	0
CCCN(CC1CC1)C(=S)NC(=O)c1ccc(S(=O)(=O)N2CCOCC2)cc1	3	4	12	-0.1	4020	3	-21
CC(C)C(c1nnnn1Cc1ccc(F)cc1)N1CCSCC1 (configuration not stated)	-9	10	10	9.4	6169	-2	-29
CCn1c(SCC(=O)Nc2sccc2C(N)=O)nnc1C1CC1	11	0	-4	6.9	2939	/	-2
CCOC(=O)CSc1nnc(-c2ccc(Cl)cc2Cl)o1	0	-6	7	2.4	9717	-2	-13
COc1ccc(NC(=O)c2ccco2)cc1S(=O)(=O)N1CCCCC1	-3	-1	-1	0.0	6019	3	-15
Cc1cccc(NC(=O)CCN2CCN(C/C=C/c3ccccc3)CC2)c1	14	/	/	1.9	4235	5	-5
CC(Oc1cccc(Br)c1)C(=O)NNC(=O)CCNC(=O)c1ccccc1Cl (configuration not stated)	-4	8	3	1.5	2839	/	-6
CC(=O)c1c(C)[nH]c(C(=O)CSc2ncnc3sc(-c4ccccc4)cc23)c1C	3	-2	-1	4.3	2317	14	-1
O=C(NCc1cccs1)c1cnc2sccn2c1=O	-19	1	-7	-0.7	4179	-7	-5
CCOc1ccc(NC(=O)CN(c2ccc([N+](=O)[O-])cc2)S(=O)(=O)c2ccccc2)cc1	47	5	3	-1.7	2325	0	-2
COc1ccc(CCNC(=O)CSc2c[nH]c3ccccc23)cc1OC	-11	13	8	-8.8	6015	3	-63
CCOc1nc(-c2ccccc2)ncc1Oc1ccccc1	34	2	1	-5.0	3990	-3	/
COc1ccc(N=Cc2c(O)cc(C)oc2=O)cc1	8	7	0	4.5	3984	-8	-33
CC12CCC(=O)N1C(C(=O)N1CCN(S(=O)(=O)c3ccc(F)c(F)c3)CC1)CS2 (configuration not stated)	7	11	0	7.1	5826	-18	-19
COc1ccccc1NC(=O)c1nnn(CC(=O)Nc2ccccc2)c1N	8	11	5	0.0	3640	2	-9
Cc1ccc2cc3c(N)c(C(=O)Nc4c(C)[nH]c(=O)[nH]c4=O)sc3nc2c1	/	/	/	/	6869	-5	-16
CCN(N=Cc1ccc(Cl)cc1)c1cc(=O)n(C)c(=O)[nH]1	7	5	-1	8.8	/	/	/
CCCNC(=O)c1csc(Nc2cccc3ccccc23)n1	7	7	2	4.1	3999	-2	-1
Cc1ccccc1-c1nc2ccccc2c(=O)n1/N=C/c1ccc([N+](=O)[O-])cc1	/	/	/	/	3631	-4	-3
N#CCCn1cc(C(=O)NCc2ccccc2)c(-c2ccc3c(c2)OCCO3)n1	4	7	21	3.4	4492	-4	-18
Cc1ccc(S(=O)(=O)N(CC(=O)Nc2ccc(C(N)=O)cc2)C(=O)N2CCN(C)CC2)cc1	3	0	8	1.1	6750	1	-17
CCc1cc[n+](C2=C([O-])c3ccccc3C(=O)/C2=N\S(=O)(=O)c2cccs2)cc1	3	-4	-1	21	2581	-3	-13
O=C(CSc1ccc(-c2cccnc2)nn1)N1CCCC1	2	6	-4	4.1	4181	-13	-28
CCCCc1cc(O)c(CCCC)c(O)c1	-10	/	/	1.6	2407	3	-36
O=C(NCc1ccco1)c1c(O)c2cccc3c2n(c1=O)CCC3	-1	7	5	5.4	2546	-9	-22
Cc1cccc(C(=O)Nc2ccc3c(c2)nc(C)n3C)c1	10	9	3	4.1	3370	-4	-32

Reprinted at random: two compounds from above
SMILES	Sa ugtP lethal	Mtb hypoxia rep	Mtb hypoxia rep growth	RN4220 kill	Bead autofluor	BJeLR lethal	PrP 5UTR inh
O=C(NCc1ccco1)c1c(O)c2cccc3c2n(c1=O)CCC3	-1	7	5	5.4	2546	-9	-22
Cc1cccc(C(=O)Nc2ccc3c(c2)nc(C)n3C)c1	10	9	3	4.1	3370	-4	-32

The listing continues.
SMILES	Sa ugtP lethal	Mtb hypoxia rep	Mtb hypoxia rep growth	RN4220 kill	Bead autofluor	BJeLR lethal	PrP 5UTR inh
CC(C)(C)c1nnc(NS(=O)(=O)c2ccc([N+](=O)[O-])cc2)s1	6	/	/	7.9	3591	-7	-48
O=C(c1cccc([N+](=O)[O-])c1)N1CCN(c2n[nH]c(=O)[nH]c2=O)CC1	17	-7	-5	2.9	4614	5	-20
NC(=O)COC(=O)CC1CC2CCC1C2 (configuration not stated)	0	-17	-1	3.5	2644	-1	-12
O=C(Cc1ccccc1)NC(NNc1ccccc1)(C(F)(F)F)C(F)(F)F	4	7	5	9.6	3279	5	-10
CC(=O)c1ccc(S(=O)(=O)NCCC(=O)OC(C)C(=O)Nc2ccc(F)cc2)cc1 (configuration not stated)	4	3	0	4.7	?	-9	-48
CCCCC1CN=C(N)N1CCCC (configuration not stated)	2	4	5	8.9	/	/	/
CC(=O)Nc1cccc(C(=O)N2CCN(Cc3ccccc3)CC2)c1	7	9	1	5.1	3149	4	3

Screening results from PubChem.
